gsp agonist: agonists of gsp mutant (McCune-Albright syndrome) | AID 624287 | gsp mutant cells, cAMP HTRF, 30 min; control for the full effect not named in the record | 340,000 tested, 0.13% active | Potency, µM (series often up to 76.9 µM), for the others: at the top dose activation (cAMP increase), most hits filed as activators; active = well fitted activation curve with a large enough effect; inconclusive = small, poorly fitted or top-dose-only effect, or another doubt; inactive = no such curve, though single readings can be large or run the other way; cell line not stated here;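 note: phosphodiesterase inhibitor Ro 20-1724 added with compounds to block cAMP breakdown; potency is the fitted concentration of half-maximal effect; nearly all actives have a fitted effect of over 60% in size; about a fifth of the inactives were tested at one dose only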
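Cells stably selected in G418 were plated at 2000/well, grown 16-24 hr, then given compounds in DMSO with the PDE inhibitor […] (300 uM solution added) for 30 min at 37C; cAMP was read by HTRF.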
TRPV1 PAM: human TRPV1 potentiation; Q8NER1; TRPV1-expressing cells, Fluo-8 calcium influx, capsaicin EC20 potentiation; host cell line not named in the record; control for the full effect not named in the record; potentiation, % at 8.33 µM; 320,000 tested, 0.02% active; AID 540277; active means potentiation above 80%; inconclusive means 30% to 80%; inactive means below 30%; note: 0% is about no effect
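Fluo-8 calcium influx in TRPV1-expressing cells, kinetic read (ex 480/em 520 nm). Compound added and read 3 min for agonist activity, followed by capsaicin at EC20 final and 2 min further read for enhancement.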
gsp antag: antagonizes gsp, the McCune-Albright syndrome mutation; gsp-mutant cells, cAMP HTRF, 30 min; control for the full effect not named in the record; Potency, µM (doses to about 76.9 µM), without a hit: at the highest dose activity change, negative = inhibition, actives largely listed as inhibitors; 340,000 tested, 0.4% active; active = falling curve of any shape with a large fitted effect; inconclusive = falling curve, mostly with a smaller effect; inactive = flat or rising curve; cell line not stated here;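 note: intracellular cAMP measured with PDE inhibitor Ro 20-1724 present during compound exposure; potency is the fitted concentration of half-maximal effect; % is set by controls: 0 for no effect and ±100 for the full control effect; nearly all actives have a fitted effect of over 65% in size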
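Cells in G418 medium, seeded 16-24 h, 37C; buffer exchange to DPBS + 1 mM CaCl2, 0.5 mM MgCl2, 0.05% BSA; cpds in DMSO + […] (300 uM stock), 30 min 37C; HTRF cAMP detection.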
ClpP mod: qHTS Assay for Activators of ClpP; ATP-dependent Clp protease proteolytic subunit (Bacillus subtilis (strain 168)), P80244; purified B. subtilis ClpP, FRET peptide cleavage, 20 min; Potency, µM (highest dose often 57.5 µM), inactives show top-dose activity change, negative = active; 340,000 tested, 1.9% active; AID 651965, 2013; active = well fitted falling curve with a large enough effect; inconclusive = small, poorly fitted or top-dose-only effect; inactive = no such curve, though single readings can be large or run the other way; note: potency is the fitted concentration of half-maximal effect; the source files actives as falling curves though it sought activators and does not explain the sign; nearly all actives have a fitted effect of over 65% in size; many hits overshoot -100%
Target sequence (P80244 whole entry, looked up): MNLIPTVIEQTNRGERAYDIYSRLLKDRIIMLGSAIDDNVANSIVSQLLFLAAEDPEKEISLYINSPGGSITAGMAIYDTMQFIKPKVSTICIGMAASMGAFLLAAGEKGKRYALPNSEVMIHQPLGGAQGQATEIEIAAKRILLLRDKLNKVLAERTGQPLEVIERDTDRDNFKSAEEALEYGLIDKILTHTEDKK
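Buffer: 100 mM Tris/HCl pH8, 100 mM KCl, 0.05% low protease BSA, 2.5% glycerol, 0.01% Tween-20. ClpP 10 microg/mL final; 20 min RT; delta FRET normalized to ADEP and DMSO controls.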
Menin MLL FP FL: menin-MLL binding inhibition, fluorescein peptide; Fluorescence polarization, fluorescein-MLL peptide displacement from menin; FP activity change, % at 61.4 µM; 290,000 tested, under 10 active; AID 1766; inconclusive = falling polarisation curve, or a change in total fluorescence; inactive = total fluorescence flat and polarisation flat or rising; no compound was filed as active; the % refers to the polarisation; negative = inhibition;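 note: % of control where 0% means no effect; inhibitors lower the polarisation; unlabelled MLL peptide was the positive control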
D2 PAM: potentiates the human D2 dopamine receptor allosterically; potentiation, % (no concentration beside the values); 360,000 tested, 0.23% active; AID 624464; P14416; DiscoveRx D2 beta-arrestin cells, luminescence, 90 min; 100% = 57 uM dopamine signal; active = potentiation of 50% or more; inconclusive = 30% to 50%; inactive = 30% or less;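 note: compound concentration not given in the record; tested on top of an EC20 dose of dopamine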
Target sequence (P14416 whole entry, looked up): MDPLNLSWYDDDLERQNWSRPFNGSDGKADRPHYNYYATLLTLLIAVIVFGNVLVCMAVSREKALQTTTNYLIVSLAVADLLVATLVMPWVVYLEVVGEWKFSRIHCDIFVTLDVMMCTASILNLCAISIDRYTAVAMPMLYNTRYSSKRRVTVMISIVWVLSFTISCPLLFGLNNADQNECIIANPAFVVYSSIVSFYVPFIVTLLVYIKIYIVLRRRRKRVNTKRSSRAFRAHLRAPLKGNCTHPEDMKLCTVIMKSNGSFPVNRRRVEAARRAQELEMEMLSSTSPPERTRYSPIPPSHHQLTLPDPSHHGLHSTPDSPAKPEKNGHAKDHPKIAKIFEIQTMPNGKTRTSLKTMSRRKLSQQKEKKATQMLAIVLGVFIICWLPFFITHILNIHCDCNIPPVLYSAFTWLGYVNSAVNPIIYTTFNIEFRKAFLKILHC
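PathHunter D2 cells, attached overnight at 37 deg C, received compound in DMSO plus dopamine at EC20 (50 nM final) for 90 min at 37 deg C. Beta-arrestin recruitment was read as luminescence after 1 h with detection reagent at ambient temperature.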
Sfp PPTase inh: Sfp phosphopantetheinyl transferase inhibition | Q9F4F7 | Biochemical Sfp PPTase activity, qHTS | Potency, µM, without a hit: max response, negative = inhibition, usual class: inhibitors | 310,000 tested, 3.5% active | AID 1490; active = well fitted inhibition curve with a large enough effect; inconclusive = small, poorly fitted or top-dose-only effect, or another doubt; inactive = no such curve, though single readings can be large or run the other way;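 note: the enzyme is Sfp with the accession as filed and its product quenches rhodamine fluorescence; potency is the fitted concentration of half-maximal effect; 0% = enzyme reaction without inhibitor and -100% = no enzyme wells; top concentration of the series not given in the record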
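Buffer: 50 mM Hepes-Na pH 7.6, 10 mM MgCl2, 0.01% Nonidet P-40, 0.01% BSA. Enzyme 15 nM, pre-exposed to compound 15 min; substrates then added and fluorescence change tracked over 30 min.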
An asterisk follows results filed as active; u = inconclusive; x = not tested or not shown; & = joins results of further samples; [ ] = another dose, or the depositor's remark.

1	Cc1cccc(OCCNS(=O)(=O)c2ccc(Cl)cc2)c1
2	O=C(Nc1cccnc1)c1cc(F)cc(F)c1
3	CC1=CC(=O)C=C(C)C1=NOc1ccccc1[N+](=O)[O-]
4	COc1ccc(-c2nnc(SCC(=O)Nc3cc(C)on3)o2)cc1
5	COc1cc(OC)cc(C(=O)NCc2nc(-c3ccccc3)no2)c1
6	COc1ccccc1CNS(=O)(=O)c1c(C(=O)N2CCCC2)c(C)n(C)c1C
7	N/C(=N\S(=O)(=O)c1cc(C(F)(F)F)cc(C(F)(F)F)c1)c1ccc(Cl)cc1
8	CCN1C(=NCCc2c[nH]c3ccccc23)N[C@@H](c2ccccc2)C(C(=O)OC)=C1C
entry no.,1,2,3,4,5,6,7,8
gsp agonist,44.4%,-22.0%,-7.3%,16.4%[15.4 µM],-3.2%,-21.7%,-38.8%[inhibitor],x
TRPV1 PAM,9.1,-17.3,-9.5,13.6,6.2,8.3,-9.1,5.8&7.5
gsp antag,-6.7%,1.4%,2.5%,10.9%,-9.1%,7.2%,-4.6%,x
ClpP mod,1.7%,-2.1%,-0.9%,x,-5.6%,0.0%,-4.1%,x
Menin MLL FP FL,x,2.3,2.9,5.4,0.3,-8.2,1.3,-12.2&14.8
D2 PAM,1.7,1.3,u,-1.6,-2.1,-22.6,-12.6,x
Sfp PPTase inh,x,19.2%,5.62µM*,-15.0%,12.8%,10.5%,31.8%[activator],u

Part of the list above, reformatted.
3: CC1=CC(=O)C=C(C)C1=NOc1ccccc1[N+](=O)[O-]
  gsp agonist: -7.3%	TRPV1 PAM: -9.5	gsp antag: 2.5%	ClpP mod: -0.9%	Menin MLL FP FL: 2.9	D2 PAM: u	Sfp PPTase inh: 5.62µM*
8: CCN1C(=NCCc2c[nH]c3ccccc23)N[C@@H](c2ccccc2)C(C(=O)OC)=C1C
  gsp agonist: x	TRPV1 PAM: 5.8&7.5	gsp antag: x	ClpP mod: x	Menin MLL FP FL: -12.2&14.8	D2 PAM: x	Sfp PPTase inh: u
6: COc1ccccc1CNS(=O)(=O)c1c(C(=O)N2CCCC2)c(C)n(C)c1C
  gsp agonist: -21.7%	TRPV1 PAM: 8.3	gsp antag: 7.2%	ClpP mod: 0.0%	Menin MLL FP FL: -8.2	D2 PAM: -22.6	Sfp PPTase inh: 10.5%
5: COc1cc(OC)cc(C(=O)NCc2nc(-c3ccccc3)no2)c1
  gsp agonist: -3.2%	TRPV1 PAM: 6.2	gsp antag: -9.1%	ClpP mod: -5.6%	Menin MLL FP FL: 0.3	D2 PAM: -2.1	Sfp PPTase inh: 12.8%

(continued)
9	O=c1c2cnn(-c3ccccc3)c2ncn1Cc1ccccn1
10	O=C(OCc1cccc(C(F)(F)F)c1)c1cc(S(=O)(=O)N2CCOCC2)ccc1F
11	CCCCNC(=O)Cn1cnc2sc(C)c(S(=O)(=O)N3CCN(c4ccccc4OC)CC3)c2c1=O
12	CC(C)Nc1nnc(SCC(=O)Nc2sccc2C#N)s1
13	CCOc1ccccc1NC(=O)c1ccc([N+](=O)[O-])cc1
14	COc1ccc(S(=O)(=O)N2CCN(C(=O)c3ccc(C)o3)CC2)cc1
15	C=CCNC(=O)C(=O)Nc1cc2c3c(c1)CCC(=O)N3CCC2
16	Cc1cccc(C(=O)NC2CC3CCCC(C2)N3S(=O)(=O)c2ccccc2)c1 (stereo unspecified)
entry no.,9,10,11,12,13,14,15,16
gsp agonist,-17.5%,-43.2%[15.4 µM],4.7%[15.4 µM],0.3%,x,-28.4%[15.4 µM],16.7%,-18.2%
TRPV1 PAM,-4.3,u,6.9,11.3,-6.0,-16.5,u,-22.4
gsp antag,11.8%,-2.0%,6.7%,-17.7%,x,x,-7.4%,-20.7%
ClpP mod,-6.8%,x,0.3%,1.2%,x,x,1.0%,-0.2%
Menin MLL FP FL,3.3,x,-0.1,x,3.3,-0.6,x,3.0
D2 PAM,-9.5,-9.0,-5.9,-4.1,x,13.0,-0.2,2.3
Sfp PPTase inh,4.1%,x,9.7%,x,5.6%,5.8%,4.8%,-2.8%

17	COc1ccc(S(=O)(=O)N/N=C/c2ccc(OCCN3CCOCC3)c(OC)c2)cc1
18	CCOC(=O)Cc1csc(NC(=O)C2CCCCC2C(=O)O)n1 (stereo unspecified)
19	CCC(C)(C)c1nnc(NC(=O)C2CCN(C(=O)c3ccco3)CC2)s1
20	COc1ccc(C(=O)N/C(=C\c2ccc(Cl)cc2)C(=O)NCC2CCCO2)cc1 (stereo unspecified)
21	Cc1ccc(-c2csc(NC(=O)c3cc([N+](=O)[O-])ccc3N3CCOCC3)n2)cc1
22	CN(C)c1ccc(-c2nn3c(C4CCCCC4)nnc3s2)cc1
23	O=C(Nc1ccccc1C(=O)O)c1cc(S(=O)(=O)N2CCCCC2)cs1
24	Cc1ccc(C)c(NC(=O)c2ccc3c(c2)CCN3S(C)(=O)=O)c1
entry no.,17,18,19,20,21,22,23,24
gsp agonist,-5.6%[15.4 µM],u,4.0%,3.5%,-31.1%[inhibitor],9.8%,-24.6%[15.4 µM],-14.6%
TRPV1 PAM,-0.5,6.0,-4.8,-13.7,13.1,7.0,16.5,x
gsp antag,11.0%,2.4%,-0.3%,-13.3%,3.9%,-15.4%,-11.5%,x
ClpP mod,0.7%,1.2%,x,1.8%,0.4%,-27.8%,x,-1.3%&-0.2%
Menin MLL FP FL,1.8,-0.6,x,x,4.5,7.1,-0.5,x
D2 PAM,-15.6,-8.8,-2.1,-22.5,-12.4,7.7,3.4,2.0
Sfp PPTase inh,-9.2%,26.6%,-100.7%,13.6%,-2.3%,3.2%,22.3%,x

25	CN1C(=O)CSc2ccc(NC(=O)NCc3ccccc3)cc21
26	C=CCn1c(SCC(=O)Nc2ccc(C(=O)O)cc2)nc2scc(-c3ccccc3)c2c1=O
27	CC(C)CN(C(=O)CCNC(=O)c1ccc(Cl)cc1)C1CCS(=O)(=O)C1 (stereo unspecified)
28	COc1cc(C(=O)NCCC(=O)NC(C)CCc2ccccc2)cc(OC)c1OC (stereo unspecified)
29	COc1oc(-c2ccc(Cl)cc2)nc1C(F)(F)F
30	CCOc1ccc(C(=O)NCCC(=O)NCCCC(=O)O)cc1
31	COc1cccc(-c2nc(NCCN3CCOCC3)c3ccccc3n2)c1O
32	Cc1cc(C)c(CC(=O)c2ccccc2)c(C)c1
entry no.,25,26,27,28,29,30,31,32
gsp agonist,-29.3%,u,-3.5%,-12.5%,10.0%,-10.6%,20.0%,-4.8%[15.4 µM]
TRPV1 PAM,-6.8,x,x,8.4,23.4,-3.8,-2.4,x
gsp antag,3.3%,u,3.8%,9.8%,-0.1%,2.5%,-15.2%,8.7%
ClpP mod,-5.0%,-0.3%,x,1.3%,u,-0.9%,-2.2%,2.5%
Menin MLL FP FL,6.9,x,x,x,0.8,-1.4,1.2,x
D2 PAM,-3.1,-6.3,-5.6,-2.1,-24.4,-7.3,-38.4,-2.5
Sfp PPTase inh,-16.3%,x,x,10.7%,-3.1%,8.3%,-0.8%,x

33	CCC(CC)c1nnc(NC(=O)c2cc(-c3ccccc3)nc3ccccc23)s1
34	Cc1cccc(NC(=O)CN2C(=O)C(C)Oc3ccccc32)n1 (stereo unspecified)
35	S=c1[nH]nc(CCSCc2ccccc2)n1-c1ccccc1
36	CC(C)(C)OC(=O)N1Cc2ccccc2C[C@H]1C(=O)NC1CCCC1
37	Cc1ccc(C(=O)c2cc([N+](=O)[O-])ccc2N2CCOCC2)cc1C
38	Cc1ccccc1NC(=O)Cc1nc(COC(=O)CCNS(=O)(=O)c2ccccc2)cs1
39	CCOC(=O)Cc1nnc(NC(=O)CSc2ncc(-c3ccccc3)nn2)s1
40	COc1ccc(-n2c(COc3ccc(C)cc3)nnc2SCc2ccc(C#N)cc2)cc1
entry no.,33,34,35,36,37,38,39,40
gsp agonist,-24.6%,-4.8%,-20.0%,9.0%[15.4 µM],-0.9%,2.1%[15.4 µM],33.8%[15.4 µM],4.3%
TRPV1 PAM,-13.0,0.8,8.6,4.0,27.8,-0.9,17.8,-9.2
gsp antag,8.5%,9.2%,-9.2%,1.8%,28.7%,-1.6%,-24.6%,-23.8%
ClpP mod,1.1%,0.0%,2.3%,-4.3%,-0.7%,x,x,1.1%
Menin MLL FP FL,2.9,3.4,3.0,-3.3,9.0,x,0.2,2.1
D2 PAM,-14.1,-10.7,-16.4,-5.0,-17.8,-0.3,-4.4,-4.6
Sfp PPTase inh,-22.1%,-3.1%,-9.5%,5.0%,-8.9%,x,15.8%,11.4%

41	Cc1cc(-c2n[nH]c(=S)n2/N=C/c2ccco2)n[nH]1
42	O=C(NC1CCSc2ccccc21)c1ccccc1F (stereo unspecified)
43	Cc1cc(C)c2nc(N3CCN(C)CC3)c(C#N)cc2c1
44	O=C(O)c1ccc(Cl)c(NC(=O)C2CCN(S(=O)(=O)c3cccs3)CC2)c1
45	CCOc1ncccc1C(=O)OCc1ccc(Cl)cc1
46	COc1cccc(C2C(C#N)=C(N)N(N(C)C)C3=C2C(=O)CCC3)c1 (stereo unspecified)
47	COc1cc(CNc2ccc3[nH]c(=O)[nH]c3c2)ccc1OCc1ccccc1C
48	C[C@]12CC[C@H](O)C[C@@H]1CC[C@@H]1[C@@H]2CC[C@@]2(C)[C@H]1CCC(=O)[C@]21CCCO1
49	Cc1onc(-c2ccccc2)c1NC(=O)Nc1ccc(OC(F)F)cc1
50	COCCN=C1Sc2nc3ccc(C)cc3cc2CN1Cc1ccco1
entry no.,41,42,43,44,45,46,47,48,49,50
gsp agonist,-1.1%,-18.2%,-4.4%,-27.9%,u,u,11.0%[15.4 µM],x,-59.7%[inhibitor],21.4%
TRPV1 PAM,27.7,0.1,-0.6,x,11.1,29.1,-5.2,x,u,-16.7
gsp antag,-12.4%,-2.2%,8.7%,x,0.2%,-3.2%,-11.9%,1.7%,-7.3%,-17.4%
ClpP mod,-0.4%,2.4%,-5.7%,-5.5%,3.7%,0.8%,-0.9%,0.4%,0.8%,1.8%
Menin MLL FP FL,1.3,x,8.3,x,6.0,-1.6,2.0,x,-1.5,3.5
D2 PAM,-12.7,-6.1,-12.3,-12.3,0.8,1.7,7.9,-0.4,-4.0,-9.4
Sfp PPTase inh,79.4µM*,-0.9%,5.6%,x,-15.3%,-3.9%,7.7%,x,12.2%,44.7µM*
